Screens: PubChem, several laboratories
CSC inhib – cancer stem cell inhibition; cancer stem cell-like cells viability, luminescence; inhibition, % at 7.5 µM; 300,000 tested, 1.1% active;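 active means mean at 75% or more and at least half the replicates too; inconclusive means mean and replicates disagree; tested in HMLE shEcad cells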;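 further: 0% = median of negative and 100% = median of positive control wells; the first replicate is given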
eIF4H FP inh – inhibitors of RNA binding by human eIF4H; eIF4H fluorescence polarization binding assay; inhibition, % at 35 µM; 290,000 tested, 0.94% active; AID 2012;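 active means 50% or more with normal probe brightness, or confirmed in later tests; inconclusive means above 50% with abnormal brightness, or retests that disagree; inactive means below 50% or failed in later tests; about a fifth of its hits are not listed in these tables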;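 further: calls also rest on retests at 20 µM and on dose response follow-up; 0% = protein and probe with vehicle and 100% = probe without protein; strong numbers were not always called active; many hits fall short of the cut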
Env fusion inh – HIV envelope-mediated fusion inhibition; HeLa-JRFL Env/CEM21 cell fusion, luciferase; inhibition, % at 12.3 µM; 360,000 tested, 1.1% active; AID 651610;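 active means mean replicate inhibition score of at least 50 and every replicate individually at or above 50; inconclusive means only one of the two criteria met; inactive means mean below 50 and not all replicates reaching 50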;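 further: 0% = plate neutral controls and 100% = maraviroc near 300 nM; one replicate is shown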
MT1-MMP act inh – blocks activation of human MT1-MMP; GFP/RFP ratio change, % at 20 µM; HT1080 RFP-PRO-GFP cells, GFP/RFP ratio fluorescence, overnight; percent of plate control window, DMSO zero; 360,000 tested, 0.061% active; P50281;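 active means GFP/RFP ratio change of at least 30% with cell ATP level not reduced by more than half and red fluorescence within 50% of control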; further: strong numbers were not always called active
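Assay system: HT1080 RFP-PRO-GFP cells | Dosing: 20 µM single dose, 1% DMSO | Incubation: Cells overnight before dosing, compound overnight, 37 °C, 5% CO2 | Evaluation: GFP/RFP fluorescence ratio | Control set: DMSO-only wells and HT1080 RFP-L50D-GFP cell wells as references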
Rce1 inhib – blocks yeast Ras-converting enzyme. calls only. 290,000 tested, 0.27% active. Q03530. yeast membranes, quenched prenylated peptide cleavage fluorescence;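 active means fall in fluorescence gain of 50% or more versus controls, with final raw signal at or below 3038400; inconclusive means same 50% fall but final raw signal above 3038400; inactive means fall in fluorescence gain under 50%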;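 further: plate controls were neutral control wells for no effect and wells lacking membranes for full effect; tested at 10 µM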
Target sequence (Q03530 whole entry, looked up): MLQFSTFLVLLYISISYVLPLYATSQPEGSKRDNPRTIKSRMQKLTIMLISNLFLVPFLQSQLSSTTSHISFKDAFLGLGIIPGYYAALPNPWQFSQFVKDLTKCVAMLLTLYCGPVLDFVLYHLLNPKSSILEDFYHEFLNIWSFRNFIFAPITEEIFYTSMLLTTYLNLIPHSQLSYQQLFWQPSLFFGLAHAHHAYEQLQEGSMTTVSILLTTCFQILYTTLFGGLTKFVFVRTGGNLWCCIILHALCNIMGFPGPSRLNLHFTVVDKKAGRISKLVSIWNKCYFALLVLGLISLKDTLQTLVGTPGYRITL
PABP FP inh – blocks human PABP binding to poly(A) RNA; 290,000 tested, 1% active; inhibition, % at 35 µM; P11940; fluorescence polarization;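 active means 50% or more with normal probe brightness, or confirmed in later tests; inconclusive means above 50% with abnormal brightness, or retests that disagree; inactive means below 50% or failed in later tests; about a fifth of its hits are not listed in these tables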;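 further: calls also rest on retests at 20 µM and on dose response follow-up; controls were probe without protein and protein plus probe with vehicle; some compounds called inactive have numbers as strong as hits; many hits fall short of the cut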
Target sequence (P11940 whole entry, looked up): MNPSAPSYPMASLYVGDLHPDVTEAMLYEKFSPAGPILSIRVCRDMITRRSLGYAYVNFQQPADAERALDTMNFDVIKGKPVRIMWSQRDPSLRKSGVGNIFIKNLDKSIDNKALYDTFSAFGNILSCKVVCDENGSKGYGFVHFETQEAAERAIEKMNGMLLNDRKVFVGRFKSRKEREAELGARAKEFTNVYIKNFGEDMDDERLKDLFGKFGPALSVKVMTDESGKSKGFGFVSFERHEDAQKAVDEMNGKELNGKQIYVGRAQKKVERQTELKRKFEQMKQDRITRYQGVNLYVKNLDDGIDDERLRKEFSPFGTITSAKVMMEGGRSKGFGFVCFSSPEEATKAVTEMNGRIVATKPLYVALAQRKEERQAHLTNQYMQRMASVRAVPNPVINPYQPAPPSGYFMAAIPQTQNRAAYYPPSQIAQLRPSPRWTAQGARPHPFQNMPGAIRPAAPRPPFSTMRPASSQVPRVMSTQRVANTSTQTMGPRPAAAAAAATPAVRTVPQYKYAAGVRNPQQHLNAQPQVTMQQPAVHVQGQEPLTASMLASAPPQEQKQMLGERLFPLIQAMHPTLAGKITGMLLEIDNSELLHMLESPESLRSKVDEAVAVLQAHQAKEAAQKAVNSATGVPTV
Yeast UUG start – alters start codon recognition fidelity in yeast; 350,000 tested, 0.13% active; activity score, % at 18.7 µM; AID 602363; S. cerevisiae UUG-firefly luciferase reporter, luminescence/redox ratio;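 active means replicate mean at a twofold rise or more, about +100% in these data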;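 further: firefly luciferase made from a UUG start codon reports start codon fidelity; reporter light over untreated wells divided by growth signal over untreated wells; some hits fall short of that in this replicate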
MT1-MMP act inh RFP – also measured in MT1-MMP act inh; calls as there; RFP signal change, %; measured here: RFP expression control read;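 0 = vehicle wells; hits needed this value within 50% of zero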
Starred values were filed as active, the others as inactive; i = inactive; ? = inconclusive; / = no result given.

Labels used below – A = CSC inhib; B = eIF4H FP inh; C = Env fusion inh; D = MT1-MMP act inh; E = MT1-MMP act inh RFP; F = Rce1 inhib; G = PABP FP inh; H = Yeast UUG start
Cc1occc1C(=O)N/N=C/c1ccc(N(C)C)cc1
  A: -8	B: -1	C: -9	D: 3	E: 1	F: i	G: -6	H: -25
COc1ccc(O)c(C(=O)c2cc(C#N)c(=O)n(-c3c(C)n(C)n(-c4ccccc4)c3=O)c2)c1
  A: -6	B: 26	C: /	D: -54	E: 7	F: i	G: 40	H: -5
O=C(Nc1ccc(F)cc1F)N1CCC(c2nc3ccccc3o2)CC1
  A: -13	B: -11	C: 0	D: -1	E: 1	F: i	G: 8	H: /
CON(C)S(=O)(=O)c1cccc(C(=O)N(CC(=O)Nc2ccccc2C(F)(F)F)Cc2ccco2)c1
  A: 9	B: /	C: /	D: -3	E: -2	F: /	G: /	H: -3
COc1ccc(-c2nc(=S)n3ccsc3n2)cc1OC
  A: /	B: 6	C: -25	D: 5	E: -1	F: i	G: -2	H: /
O=C(O)c1ccc(-n2nnnc2SCc2cccc(Br)c2)cc1
  A: 5	B: 1	C: -21	D: 0	E: 4	F: i	G: -2	H: -2
COc1ccc(/C=N/NC(=O)CSc2nnc(CCCc3ccc(OC)c(C)c3)o2)cc1
  A: /	B: 0	C: /	D: 2	E: -5	F: i	G: -5	H: -13
O=C(CSc1n[nH]c(=O)[nH]c1=O)Nc1cccc(S(=O)(=O)N2CCOCC2)c1
  A: 2	B: 8	C: 24	D: 0	E: 0	F: i	G: -2	H: /
Cc1cc(=O)oc2c3c(cc(OCC(=O)N[C@@H](Cc4ccccc4)C(=O)O)c12)OC(C)(C)CC3
  A: -8	B: -3	C: /	D: 1	E: 4	F: i	G: 7	H: 1
COC(=O)CCc1c(C)[nH]c(C(=O)OCc2ccccc2)c1C
  A: 1	B: -2	C: /	D: -5	E: -9	F: i	G: -4	H: -2
COc1ccccc1CNCC(=O)Nc1cc(S(=O)(=O)N2CCCCCC2)ccc1Cl
  A: -2	B: 4	C: -3	D: 4	E: -11	F: i	G: -7	H: /
CC1(C(=O)NS(=O)(=O)c2ccc(Cl)s2)CCN1C(=O)CCc1ccccc1 (configuration not stated)
  A: /	B: /	C: 17	D: 1	E: 7	F: /	G: /	H: -5
c1ccc(-c2nc(-c3ccco3)n3ccccc23)cc1
  A: /	B: ?	C: -29	D: -17	E: 4	F: i	G: -12	H: 3
Cc1ccc(C)c(N2CCN(c3ccc(N4C(=O)COCC4=O)cc3[N+](=O)[O-])CC2)c1
  A: -4	B: -3	C: /	D: 1	E: -4	F: i	G: -2	H: -9
Cc1cccc(/C=N/NC(=O)c2cc(C3CC3)nc3ccccc23)n1
  A: -23	B: -4	C: 16	D: -6	E: -3	F: i	G: 31	H: -11
CCN(C(=O)CN1C(=O)c2ccccc2S1(=O)=O)C1CCCCC1
  A: -6	B: /	C: -11	D: 2	E: -5	F: i	G: /	H: 2
CNC(=O)Cn1ncc2c3ccccc3n(C)c2c1=O
  A: -6	B: -6	C: /	D: 3	E: 2	F: i	G: 5	H: -1
O=C(NC1CCCCC1)C(c1ccc2ncccc2c1)N(Cc1ccc2c(c1)OCO2)C(=O)c1ccc2c(c1)OCCO2 (configuration not stated)
  A: 14	B: -11	C: 2	D: -4	E: 0	F: i	G: -2	H: -7
CCN(CC)c1ccc(/C=N/NC(=O)c2cnccn2)cc1
  A: /	B: 14	C: i	D: -6	E: -13	F: i	G: -6	H: /
CCOC(=O)c1cc(-c2ccccc2)nn1CC1CC(c2ccc(Cl)cc2)=NO1 (configuration not stated)
  A: -9	B: /	C: 24	D: 1	E: 3	F: i	G: /	H: -7

7 neighbouring compounds already listed:
Labels used below – A = CSC inhib; B = eIF4H FP inh; C = Env fusion inh; D = MT1-MMP act inh; E = MT1-MMP act inh RFP; F = Rce1 inhib; G = PABP FP inh; H = Yeast UUG start
Cc1ccc(C)c(N2CCN(c3ccc(N4C(=O)COCC4=O)cc3[N+](=O)[O-])CC2)c1
  A: -4	B: -3	C: /	D: 1	E: -4	F: i	G: -2	H: -9
Cc1cccc(/C=N/NC(=O)c2cc(C3CC3)nc3ccccc23)n1
  A: -23	B: -4	C: 16	D: -6	E: -3	F: i	G: 31	H: -11
CCN(C(=O)CN1C(=O)c2ccccc2S1(=O)=O)C1CCCCC1
  A: -6	B: /	C: -11	D: 2	E: -5	F: i	G: /	H: 2
CNC(=O)Cn1ncc2c3ccccc3n(C)c2c1=O
  A: -6	B: -6	C: /	D: 3	E: 2	F: i	G: 5	H: -1
O=C(NC1CCCCC1)C(c1ccc2ncccc2c1)N(Cc1ccc2c(c1)OCO2)C(=O)c1ccc2c(c1)OCCO2 (configuration not stated)
  A: 14	B: -11	C: 2	D: -4	E: 0	F: i	G: -2	H: -7
CCN(CC)c1ccc(/C=N/NC(=O)c2cnccn2)cc1
  A: /	B: 14	C: i	D: -6	E: -13	F: i	G: -6	H: /
CCOC(=O)c1cc(-c2ccccc2)nn1CC1CC(c2ccc(Cl)cc2)=NO1 (configuration not stated)
  A: -9	B: /	C: 24	D: 1	E: 3	F: i	G: /	H: -7

The list continues.
Labels used below – A = CSC inhib; B = eIF4H FP inh; C = Env fusion inh; D = MT1-MMP act inh; E = MT1-MMP act inh RFP; F = Rce1 inhib; G = PABP FP inh; H = Yeast UUG start
COC(=O)c1cc(OC)c(OC)cc1NC(=O)c1cccnc1
  A: /	B: -20	C: /	D: /	E: /	F: i	G: 18	H: /
CSc1ccccc1C(=O)NCC1CCCO1 (configuration not stated)
  A: -9	B: -5	C: -8	D: 5	E: 1	F: i	G: -3	H: -13
CCCCCCCCCCCCN1[C@@H](CC(=O)OC)c2cc(F)ccc2S1(=O)=O
  A: 6	B: /	C: 37	D: -3	E: -5	F: i	G: /	H: 0
CC1CCc2ccccc2N1C(=O)c1cccs1 (configuration not stated)
  A: -7	B: -5	C: -86	D: -4	E: 0	F: i	G: -2	H: -46
O=S(=O)(NCC1CCCN(Cc2ccccc2O)C1)c1cccc2cccnc12 (configuration not stated)
  A: 4	B: 10	C: 3	D: -5	E: -3	F: i	G: 3	H: -6
CC(=O)Nc1ccc(NC(=O)c2ccc(COc3ccccc3)cc2)cc1
  A: -8	B: -12	C: -7	D: 2	E: 2	F: /	G: -4	H: -16
O=S(=O)(/N=C(\Sc1ccc(Cl)cc1)c1ccccc1)c1ccccc1
  A: 15	B: -11	C: -54	D: -2	E: 0	F: i	G: 5	H: -6
COc1ccccc1NC(=O)c1coc(=O)c(Br)c1
  A: 29	B: 19	C: -94	D: 1	E: 1	F: i	G: -7	H: -15
CCOC(=O)c1cnc(SC)nc1Sc1cc(Cl)ccc1Cl
  A: 20	B: 12	C: /	D: -1	E: -3	F: i	G: -1	H: -10
O=C(Nc1ccn(Cc2ccc(F)cc2)n1)c1ccncc1
  A: -9	B: -2	C: /	D: 0	E: -14	F: i	G: 1	H: -16
COc1cccc(Nc2c(F)c(F)c(F)c(F)c2C(=O)O)c1
  A: -6	B: 10	C: /	D: 2	E: 3	F: i	G: 0	H: -11
CCOc1ccc(/C(C)=N\NC(=O)Cc2ccccc2)cc1
  A: -4	B: -14	C: -5	D: 7	E: 7	F: i	G: 4	H: -6
CCn1nc(C)c(NS(=O)(=O)c2ccc(C)cc2)c1C
  A: -4	B: -2	C: ?	D: -12	E: -18	F: i	G: -4	H: -17
O=C(NCCO)c1cccc(-c2cccc3nccn23)c1
  A: /	B: /	C: 0	D: 0	E: 1	F: /	G: /	H: -13
CC(=O)Nc1ccc(C(=O)Nc2ccncc2)cc1
  A: -11	B: -1	C: 9	D: -1	E: 0	F: i	G: -2	H: -13
Cc1ccc(N2C(=O)C(O)(C(F)(F)F)C3=C2CC(C)(C)CC3=O)cc1 (configuration not stated)
  A: -4	B: 2	C: 8	D: -1	E: 4	F: i	G: 4	H: 7
Cn1nc(-c2ccccc2)cc1NC(=O)c1ccccc1
  A: 11	B: -8	C: 26	D: 2	E: 2	F: i	G: 8	H: -10
CCC(Sc1nc2cc3c(cc2c(=O)n1Cc1ccco1)OCO3)C(=O)Nc1cccc(OC)c1 (configuration not stated)
  A: 15	B: 3	C: -159	D: -3	E: 2	F: i	G: 2	H: -9
O=C(CNC(=O)c1ccco1)NNC(=O)c1cccc(Cl)c1
  A: 2	B: /	C: -7	D: -9	E: 3	F: /	G: /	H: -8
O=C(Nc1ccc(F)c(Cl)c1)N1CCCCCC1
  A: 10	B: -4	C: -21	D: 1	E: 6	F: i	G: 13	H: -15
COc1ccc(C(=O)N2CCC(C)(C(=O)NS(=O)(=O)C3CC3)C2)cc1 (configuration not stated)
  A: /	B: /	C: 2	D: 0	E: 5	F: /	G: /	H: 2
CC(C)C(=O)Nc1cccc(COc2cccc(CN(Cc3ccccc3)C(=O)OC(C)(C)C)c2)c1
  A: /	B: /	C: 35	D: 3	E: -15	F: /	G: /	H: -17
Cn1c(SCc2ccccc2)nnc1C1CCCNC1 (configuration not stated)
  A: -9	B: -6	C: -16	D: 4	E: -1	F: i	G: -5	H: -17
COc1ccc(C2SCC(=O)N2c2nnc(C34CC5CC(CC(C5)C3)C4)s2)cc1 (configuration not stated)
  A: -7	B: -12	C: /	D: -3	E: -8	F: i	G: 18	H: /
COc1ccc(C2SCCN2S(=O)(=O)c2ccc(NC(C)=O)cc2)cc1OC (configuration not stated)
  A: -3	B: -9	C: -5	D: 2	E: -1	F: /	G: -4	H: -13
CC(=O)c1cccc(Nc2nc(-c3sc(N)nc3C)cs2)c1
  A: -2	B: 16	C: -58	D: -1	E: -5	F: i	G: 11	H: -16
CSc1oc(-c2ccccc2)nc1S(=O)(=O)c1ccc(C)cc1
  A: /	B: -2	C: -15	D: -5	E: -6	F: i	G: -6	H: 7
O=C(/C=C/c1ccc([N+](=O)[O-])cc1)NC1CC2CCC1C2 (configuration not stated)
  A: 1	B: 6	C: -6	D: 0	E: -3	F: i	G: 16	H: /
O=C(NCCc1ccccc1)NC(Cc1ccccc1)C(=O)O (configuration not stated)
  A: -7	B: -9	C: -4	D: -5	E: 0	F: i	G: 11	H: -11
COc1ccc(N(C(=O)c2ccco2)C(C(=O)NC2CCCC2)c2cccs2)c(OC)c1 (configuration not stated)
  A: -8	B: 3	C: 2	D: -1	E: -1	F: i	G: -5	H: -2
O=C(Nc1c(S(=O)(=O)c2ccc(Cl)cc2)csc1Br)c1ccccc1Cl
  A: 0	B: -13	C: 25	D: 1	E: -2	F: i	G: -1	H: -2
COc1ccc(/C=C2\SC(=S)N(CCCC(=O)Nc3ccc(O)cc3)C2=O)cc1
  A: 53	B: -9	C: 20	D: 1	E: -8	F: i	G: 2	H: -17
O=C(OCc1cn([C@@H]2C[C@H](c3ccccc3)N(Cc3cccs3)C[C@H]2O)nn1)c1ccccc1
  A: /	B: /	C: -485	D: -2	E: 3	F: /	G: /	H: -8
Fc1ccc(NC(=S)Nc2cccnc2)cc1Cl
  A: 3	B: 6	C: -4	D: 1	E: 3	F: i	G: 10	H: /
CCOC(=O)N1CCC(NC(=O)Cn2nc(Cc3ccncc3)c3ccccc3c2=O)CC1
  A: -13	B: -2	C: -5	D: 0	E: 3	F: i	G: -6	H: -20
O=C(CC1C(=O)NCCN1Cc1cccc(F)c1F)NCCCC1CCCC1 (configuration not stated)
  A: -12	B: 20	C: 2	D: 0	E: 3	F: i	G: -3	H: -5
CCCN(CCC)C(=O)c1cn(C)c2ccc(S(=O)(=O)N3CCCC3)cc2c1=O
  A: 1	B: -4	C: -2	D: -1	E: 4	F: i	G: 11	H: 3
O=c1sc(N2CCN(c3ccccc3F)CC2)nc2ccsc12
  A: 3	B: 4	C: -147	D: 1	E: -7	F: i	G: -6	H: 1
CCc1ccccc1NC(=O)CNC(=O)c1cc(C2CC2)nc2c1cnn2C(C)C
  A: /	B: /	C: 26	D: 2	E: -1	F: /	G: /	H: -2
